# High-throughput results (PubChem)
# RE007 growth inh – less growth of the S. pombe RE007 Vpr strain | S. pombe RE007 Vpr strain, BacTiter-Glo ATP luminescence, 24 h; control for the full effect not named in the record | Potency, µM (doses to about 92.2 µM), for the others: top-dose activity change, negative = less growth | 0.21% of 360,000 active; active = well fitted falling curve with a large enough effect; inconclusive = small, poorly fitted or top-dose-only effect; inactive = no such curve, though single readings can be large or run the other way;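 further: on the % scale 0 is the no-effect control and ±100 the full control effect; nearly all actives have a fitted effect of over 50% in size; the assay follows cell death caused by Vpr and the record does not say whether a fall means rescue or toxicity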
#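 Fission yeast RE007 carrying one integrated HIV-1 vpr copy, seeded at OD 0.01 in PMG+AL medium with 23 nL pinned compound. Grown 24 h at 30 degrees; viability read by BacTiter-Glo luminescence after 5 min.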
# SARS PLP yeast – SARS-CoV PLP inhibition in yeast; S. cerevisiae expressing SARS-CoV PLpro, growth rescue; control for the full effect not named in the record; Potency, µM (top dose mostly 32.9 µM), for inactives: at the highest dose activity, positive = growth rescue; 0.19% of 330,000 active; active means well fitted rising curve with a large enough effect; inconclusive means small, poorly fitted or top-dose-only effect; inactive means no such curve, though single readings can be large or run the other way; further: 0% is about no effect; nearly all actives have a fitted effect of over 55% in size; growth read by luminescence after 48 h
# Lassa entry inh – blocks Lassa virus binding to or entry into cells. Lassa virus pseudotype entry inhibition, cell reporter; control for the full effect not named in the record. Potency, µM (series often up to 37.9 µM), for inactives: top-dose activity change, negative = inhibition, hits mostly inhibitors. 1.2% of 300,000 active; active means well fitted inhibition curve with a large enough effect; inconclusive means small, poorly fitted or top-dose-only effect, or effect the other way; inactive means flat fitted curve, though single readings scatter; tested in HEK293 cells; further: on the % scale 0 is the no-effect control and ±100 the full control effect; nearly all actives have a fitted effect of over 50% in size; luciferase read-out
# StopGo reporter – lowers the luciferase signal of an FMDV 2A StopGo reporter. human cells with a luciferase reporter of 2A StopGo recoding; control for the full effect not named in the record. Potency, µM (series often up to 57.9 µM), for the others: at the highest dose signal change, negative = less light. 1.2% of 410,000 active. AID 1159524; active = well fitted falling curve with a large enough effect; inconclusive = small, poorly fitted or top-dose-only effect; inactive = no such curve, though single readings can be large or run the other way; tested in HEK293T cells; further: on the % scale 0 is the no-effect control and ±100 the full control effect; nearly all actives have a fitted effect of over 45% in size; luciferase light after 4 h
# NS1 function inh – influenza NS1 inhibition; 0.4% of 270,000 active; Potency, µM (series often up to 46.1 µM), for inactives: at the highest dose activity, positive = more growth; S. cerevisiae slowed by influenza A NS1, growth recovery by OD600; active means well fitted rising curve with a large enough effect; inconclusive means small, poorly fitted or top-dose-only effect; inactive means no such curve, though single readings can be large or run the other way; further: nearly all actives have a fitted effect of over 50% in size
#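 A cell-based growth assay was used: compounds that relieve NS1-induced slow growth of budding yeast raise OD600. Assay medium was yeast nitrogen base with ammonium sulphate and -URA supplement, pH 6.0, with 2% galactose.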
# MARV entry inh – Marburg virus entry inhibition. Marburg virus pseudotyped entry inhibition, cell reporter; control for the full effect not named in the record; about a third of the inactives were read at about 46 µM. Potency, µM (highest dose often 37.8 µM), without a hit: at the top dose activity change, negative = inhibition, usual class: inhibitors. 1.8% of 300,000 active. AID 540276; active = well fitted inhibition curve with a large enough effect; inconclusive = small, poorly fitted or top-dose-only effect, or effect the other way; inactive = flat fitted curve, though single readings scatter; tested in HEK293 cells; about a fifth of its hits are not listed in these tables; further: on the % scale 0 is the no-effect control and ±100 the full control effect; luciferase read-out
# Cruzain inh Det – inhibitors of Trypanosoma cruzi cruzain with detergent; P25779; purified cruzain, Z-FR-AMC fluorescence, 0.01% Triton; Potency, µM, for the others: max response, negative = inhibition, actives largely listed as inhibitors; 0.43% of 200,000 active; AID 1478;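 further: plate controls were neutral wells for no effect and buffer without enzyme for full effect; nearly all actives have a fitted effect of over 40% in size; top concentration of the series not given in the record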
# Target sequence (P25779 123-467 limits assumed): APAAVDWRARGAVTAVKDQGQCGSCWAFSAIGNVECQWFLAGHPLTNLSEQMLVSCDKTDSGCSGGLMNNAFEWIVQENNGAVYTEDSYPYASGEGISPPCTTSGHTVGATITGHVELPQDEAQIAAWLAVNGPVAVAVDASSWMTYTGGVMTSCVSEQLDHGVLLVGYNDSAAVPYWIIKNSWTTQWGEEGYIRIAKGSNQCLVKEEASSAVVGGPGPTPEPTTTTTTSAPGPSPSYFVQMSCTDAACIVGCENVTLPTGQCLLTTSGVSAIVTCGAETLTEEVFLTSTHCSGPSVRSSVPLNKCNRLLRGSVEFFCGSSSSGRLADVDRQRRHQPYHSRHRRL
#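 Detergent-containing arm of a paired screen for aggregation-based inhibition: 0.01% Triton X-100 present. Cruzain at 1.5 nM cleaved 2 uM Z-FR-AMC at pH 5.5 with 5 mM DTT; AMC fluorescence gain over 60 s measured activity.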
# Cruzain inh noDet – inhibitors of Trypanosoma cruzi cruzain without detergent; AID 1476; 2.3% of 200,000 active; purified cruzain, Z-FR-AMC fluorescence, no detergent; P25779; Potency, µM, inactives show max response, negative = inhibition, hits mostly inhibitors;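 further: plate controls were enzyme without inhibitor for no effect and buffer without enzyme for full effect; nearly all actives have a fitted effect of over 40% in size; top concentration of the series not given in the record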
#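 Detergent-free condition (0.00005% Triton X-100) in acetate buffer pH 5.5 with DTT. 1.5 nM enzyme and compound were pre-mixed 15 min, then 2 uM Z-FR-AMC substrate added; reaction progress from fluorescence change between first and third reads (60 s).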
# * = called active by the depositor; ? = inconclusive; · = not tested or not shown; & = joins results of further samples; [ ] = remark or other dose. Unless noted, the call rests on the fitted dose curve; in most records, active means well fitted curve in the direction sought with a large enough effect; inconclusive means small, poorly fitted or top-dose-only effect, or another doubt; inactive means no such curve, though single readings can be large; an effect the other way counts as inactive or inconclusive. Potency means the concentration at half of the fitted maximal effect.
SMILES,RE007 growth inh,SARS PLP yeast,Lassa entry inh,StopGo reporter,NS1 function inh,MARV entry inh,Cruzain inh Det,Cruzain inh noDet
CC(=O)N1CCc2cc(S(=O)(=O)NCCC(=O)Nc3ccc4c(c3)OCCO4)ccc21,1%,-1%,?,62%[activator],5%,-2%,-3.1%,-13%
CCn1cc(/C=C(\NC(=O)c2ccccc2Cl)C(=O)N2CCOCC2)c2ccccc21,5%,2%,·,-12%,-7%,·,·,·
CN1CCc2c(c3c(n2C)CCN(C)C3c2ccc(F)cc2)C1c1ccc(F)cc1 (stereo not drawn),-16%,-2%,-1%,-1%,-3%,-14%,4.4%,11%
Cc1ccc(C(=O)c2oc3ccccc3c2NC(=O)c2cc(-c3ccccc3O)n[nH]2)cc1,-6%,-26%,-22%,-26%,12%,-23%,-0.3%,?
O=C(NC(=S)Nc1ccccn1)c1cc(-c2ccccc2)nc2ccccc12,-14%,7%,4%,?,60%,-23%,-8.3%,?
CCCOc1ccc(OC(=O)c2c(-c3ccccc3Cl)noc2C)cc1,·,·,-1%[46.1 µM],-8%,·,·,-4.1%,-19%
CCOC(=O)Cn1c(=NC(=O)CSC(C)=O)sc2cc(OC)ccc21,10%,0%,-25%,-23%,?,-13%,0.4%,-13%
O=S(=O)(Nc1ncn[nH]1)c1ccc2ccccc2c1,23%,-3%,?,2%,9%,10%,2.6%,2%
CCOC(=O)c1c(NC(=O)CN2CCN(c3ccc(Cl)cc3)CC2)sc(C)c1C,13%,1%,?,·,13%,-17%,0.0%,-11%
CCOC(=O)N1CCN(C(=O)c2ccc3c(=O)n(-c4ccccc4F)c(=S)[nH]c3c2)CC1,16%,-3%,2%[46.1 µM],-3%,·,13%[46.1 µM],·,·
O=C1NC(=O)C(Nc2cccc3ccccc23)S1 (stereo not drawn),5%,-19%,?,3%,-11%,10%,-7.4%,-20%
CC(C)(C)NS(=O)(=O)c1cccc2nsnc12,-2%,·,1%,15%,10%,1%,·,·
Cc1cc(C)c(NC2=NCC(=O)N2C2CCCCC2)c(C)c1,-13%,-6%,11%,-8%,-47%,6%,1.9%,3%
O=C(CSCc1ccccc1F)NCc1ccc(F)cc1,6%,-2%,-1%[46.1 µM],30%[activator],·,5%[46.1 µM],·,·
CC(=O)c1ccc(NS(=O)(=O)c2cnc(N)nc2)cc1,·,·,1%[46.1 µM],8%,·,·,3.1%,5%
Nc1nc(NC(=O)CCC(=O)O)nn1-c1ccccc1,6%,-3%,-1%,12%,0%,12%,·,·
CN(C(=O)c1ccncc1)c1nnc(-c2ccccn2)s1,-1%,-6%,15%,59%[activator],-6%,?,-1.9%,3%
O=C(OCCc1ccccn1)c1cccc([N+](=O)[O-])c1,-5%,·,2%[46.1 µM],18%,·,9%[46.1 µM],·,·
CCc1ccccc1NC(=O)CSc1nnc(-c2ccco2)n1N,-3%,2%,3%,25%,5%,?,3.4%,-1%
Cc1ccc(S(C)(=O)=O)cc1S(=O)(=O)Nc1ccccc1,-2%,11%,-11%,53%[activator],11%,-1%,-0.4%,-8%
CCc1ccc(N2CCN(C(=O)c3ccc(OC)c(OC)c3)CC2)cc1,-10%,1%,·,?,-21%,·,-1.1%,?
Cc1ccc(-c2nn(C)c(=O)c3ccccc23)cc1S(=O)(=O)NCCN(C)C,3%,0%,-21%[46.1 µM],20%,3%,11µM*,·,·
Cc1ccc(OCC(=O)Nc2nc(-c3ccc(Br)cc3)ns2)cc1,·,·,4%[46.1 µM],-3%,·,-9%[46.1 µM],-3.9%,8%
CCCCCC(=O)Nc1cccc(S(=O)(=O)NC2=NCCC2)c1,-3%,5%,2%,32%[activator],·,?,·,·
CC(C)C(=O)NC(c1ccco1)c1ccc2cccnc2c1O (stereo not drawn),-25%,?,?,-18%,-61%,?,-0.1%,-8%
O=C(CN1C(=O)c2ccccc2S1(=O)=O)Nc1ccc(S(=O)(=O)N2CCCC2)cc1,11%,?,8%,-16%,-22%,12%,1.8%,-3%
Cc1cc2n(n1)CCCN2C(=O)Nc1ccc(C)c(Cl)c1,·,·,-4%[46.1 µM],-3%,·,4%[46.1 µM],-3.8%,1%
CC(=O)Nc1ccc(S(=O)(=O)NCc2cc(=O)n(C)c(=O)n2C)cc1,3%,11%,·,-13%,15%,·,·,·
CNC(=O)N(C)c1nnc(C(C)(C)C)s1,-12%,-2%,0%,7%&27%,2%,-11%&-11%&-11%&-11%&-11%&-11%,-2.5%&5.5%,3%&5%
CCc1nc2ccccc2c(C(=O)Nc2cccc(C)c2)c1C,2%,-1%,-9%,-12%,7%,?,·,·
COC(=O)/C=C1/S/C(=N/NC(=O)c2ccccc2OC)NC1=O,16%,?,15%[46.1 µM],15%,-39%,-6%[46.1 µM],·,·
CCO[C@H]1OC(C(=O)N2CCN(Cc3ccccc3)CC2)=C[C@@H](c2cn(C(C)=O)c3ccccc23)[C@@H]1CCCO,-14%,-1%,·,-21%,-10%,·,·,·
COc1ccc(N=C(NN)c2ccc3ccccc3n2)cc1,·,-16%,?,39%[activator],13%,?,-7.7%,-4%
COc1ccc(C(=O)NCCCOC(C)C)cc1OC1CCN(C(C)=O)CC1,10%,4%,2%,74%[activator],-6%,?,·,·
Cc1ccc(NC(=O)NC2CCCCC2)cc1S(=O)(=O)N1CCOCC1,15%,0%,?,-19%,·,1%,·,·
Cc1cccc(C(=O)Nc2c3c(nn2-c2ccc(Cl)cc2)CS(=O)(=O)C3)c1,·,·,18%[46.1 µM],-23%,·,·,0.4%,-18%
COc1ccc(NC(=O)CC2C(=O)N(c3ccc(OC)cc3)C(=O)N2C2CCCCC2)cc1 (stereo not drawn),·,·,?,-5%,·,12%[46.1 µM],-0.8%,1%
Cc1ccc(NC(=O)C2=COCCO2)cc1S(=O)(=O)N1CCOCC1,-9%,-5%,-22%,7%,·,6%,·,·
FC(F)(F)c1nnc2n1N=C(c1ccccc1)CS2,8%,-2%,·,-11%,4%,·,·,·
Cc1cc(Nc2ccc(F)c(F)c2)nc(-c2ccccc2O)n1,-2%,2%,·,0%,1%,·,·,·
Cc1nn(-c2ccccc2)c(C)c1NC(=O)c1cccs1,13%,2%,-4%,-11%,-2%,-17%,2.0%,-5%
CCOc1ccccc1NC(=O)COc1cccnc1[N+](=O)[O-],9%,-12%,14%[46.1 µM],-7%,·,?,·,·
S=C(Nc1ccc(Oc2ccccc2)cc1)NC1CCCCC1,-21%,-29%,0%,24%,20%,?,-1.6%,10%
CC1=C(C(=O)N2CCOCC2)C(c2ccc(Cl)cc2)NC(=S)N1 (stereo not drawn),-6%,?,·,2%,0%,·,4.2%,11%
Cc1ccc2nc(N(Cc3cccnc3)C(=O)C3COc4ccccc4O3)sc2c1 (stereo not drawn),·,·,?,21%,·,·,-1.1%,-2%
COc1ccccc1NS(=O)(=O)c1cn(C)c(C)n1,·,·,1%[46.1 µM],0%,·,·,-0.3%,-3%
CCCCC1=CC2=C(c3ccco3)C(=O)C(C)(OC(=O)c3ccc(OC)cc3)C(=O)C2=CN1c1ccccc1 (stereo not drawn),-4%,1%,·,-10%,15%,?,·,·
COCCCn1c(C)nnc1SCC(=O)NCc1ccco1,-12%,5%,2%,·,4%,-25%,-1.7%,3%
CCCN1CCN(c2ncc3c(n2)CCN(Cc2ccc(OC)c(OC)c2OC)C3)CC1,·,·,?,-19%,·,·,1.4%,5%
O=C(c1nnsc1S(=O)(=O)c1ccc(Cl)cc1)N1CCOCC1,-12%,-11%,?,16µM*,·,?,·,·
Cc1ccccc1CSCC(=O)Nc1ccccc1-c1ccccc1,·,-40%,4%,-21%,-1%,?,-7.0%,5%
S=C(c1ccc(Br)cc1)N1CCCC1,-3%,0%,?,12%,10%,-18%&-18%,·,·
CCn1c(-c2cc(Br)cc(OC)c2O)nc2cc(S(=O)(=O)N(C)C)ccc21,15%,12%,8%,?,-8%,?,-5.3%,20µM*
COc1ccc(Cl)cc1S(=O)(=O)N(C)CC(=O)N1CCOCC1,6%,0%,-17%[46.1 µM],-2%,9%,-19%[46.1 µM],·,·
Cn1ncc([N+](=O)[O-])c1C(=O)Nc1cccc(Cl)c1,1%,-3%,·,-12%,-1%,·,·,·
O=C(OCc1nnc(-c2ccccc2)o1)c1ccc(Br)o1,-19%,-3%,5%,-12%,·,-19%[46.1 µM],·,·
Cc1ccc(N=Nc2c(N)nn3c(N)c(C#N)c(C)nc23)cc1,0%,15%,·,-23%,-3%,·,·,·
CC(=O)c1cccc(NC(=O)NCc2ccco2)c1,-8%,-3%,-1%,73%[activator],-2%,12%,0.3%,-9%
CN1CCN(CC(=O)Nc2nc(-c3c[nH]c4ccccc34)cs2)CC1,6%,1%,-15%,40%[activator],·,?,·,·
Cc1sc2nc(SCC(=O)Nc3ccccc3F)[nH]c(=O)c2c1C,11%,-2%,-27%[46.1 µM],-13%,0%,1%[46.1 µM],·,·

# (next part)
SMILES,RE007 growth inh,SARS PLP yeast,Lassa entry inh,StopGo reporter,NS1 function inh,MARV entry inh,Cruzain inh Det,Cruzain inh noDet
CC1=C(C#N)C(=O)NC(=O)/C1=C\c1ccc(-c2ccc(C)cc2[N+](=O)[O-])o1,-18%,-2%,17%,-11%,·,8%[46.1 µM],·,·
CCOCCCNC(=O)c1ccc2c(=O)n(Cc3ccc4c(c3)OCO4)c(=S)[nH]c2c1,-10%,0%,?,-2%,·,1%,·,·
O=C(Nc1ncccc1O)c1cccc(S(=O)(=O)NCc2ccccc2)c1,-28%,-1%,2%,23%,·,?,·,·
CN(C(=O)CSc1nc2ccc(NC(=O)c3cccc(F)c3)cc2s1)c1ccccc1,·,·,-26%[46.1 µM],?,·,?,-5.5%,-27%
O=C(Nc1ccccn1)C1CCCN1S(=O)(=O)c1ccc(Cl)cc1 (stereo not drawn),2%,-1%,28%,-26%,-3%,3%,·,·
CC(=O)Nc1ccc(-c2ccc(NC(C)=O)cc2)cc1,9%,1%,17%,59%[activator],·,?,·,·
CC(C)C(=O)NC(c1ccc([N+](=O)[O-])cc1)c1c(O)ccc2ccccc12 (stereo not drawn),12%,5%,-3%,?,2%,6%,-6.0%,1%
